# From PubChem
# MT1-MMP promoter – inhibitors of MT1-MMP promoter transcription, cell-based, luciferase reporter, luminescence (AID 618). actives 0.62% (n = 87,000). calls from a first round at 10 µM; hits with a dose series show EC50 in µM. MT1-MMP promoter luciferase reporter cells, luminescence;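 active = over half of the reporter light lost at 10 µM or EC50 under 50 µM; inactive = the rest and hits that failed the dose series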;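 note: actives suppress MT1-MMP promoter-driven transcription so potencies describe inhibitors; HT1080 fibrosarcoma cells; overnight exposure; toxic or luciferase-blocking compounds were not removed from the actives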
# Hsc70 ATP site – Hsc70 inhibitors, probe displacement, primary screen, biochemical, fluorescence polarization (AID 568). displacement, % at 20 µM, or IC50 in µM where a hit was titrated. Hsc70 fluorescence polarization, probe displacement; higher % means a stronger effect; strong numbers were not always called active. 83,000 tested, under 10 active. Heat shock cognate 71 kDa protein (Homo sapiens);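 active = displacement above 50% without optical interference and an IC50 on retest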;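 note: ATPase domain with a fluorescein-tagged ATP probe; 0% = vehicle and 100% = excess ADP; read after one hour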
# WNV NS2B-NS3 inh – inhibitors of WNV NS2B-NS3 protease, primary screen, biochemical, fluorogenic substrate; Genome polyprotein (West Nile virus), P06935; fluorogenic substrate Ex360/Em465; active compounds read low; z-score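 (tested at a level between 10 and 100 µM)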; actives 0.18% (n = 65,000);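 active = z-score at -3 or under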;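 note: score is relative to mean and spread of the compound wells of a plate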
# Target sequence (P06935 1371-1501 limits assumed): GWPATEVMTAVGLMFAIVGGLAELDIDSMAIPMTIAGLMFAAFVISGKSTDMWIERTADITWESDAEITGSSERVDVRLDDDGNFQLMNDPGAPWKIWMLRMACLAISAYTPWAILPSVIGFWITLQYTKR
# Target sequence (P06935 1502-1679 limits assumed): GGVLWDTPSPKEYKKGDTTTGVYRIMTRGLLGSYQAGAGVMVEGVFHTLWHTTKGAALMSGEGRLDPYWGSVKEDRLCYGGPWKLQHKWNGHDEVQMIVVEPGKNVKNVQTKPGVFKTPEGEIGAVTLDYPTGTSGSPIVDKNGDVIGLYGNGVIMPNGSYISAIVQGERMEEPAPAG
# An asterisk follows results filed as active; i = inactive; . = not tested or not shown; + = active, no number. Some of the compounds tested; the hit share may differ from the screen's.
SMILES,MT1-MMP promoter,Hsc70 ATP site,WNV NS2B-NS3 inh
Cc1ccc(S(=O)(=O)CC2CSc3nc(N)cc(=O)n32)cc1 (stereo unspecified),i,2.1%,0.77
Cc1noc(C)c1C(=O)NCCc1ccccc1,i,4.0%,.
COC(=O)CSc1nc(NCC(C)C)nc(N2CCOCC2)n1,i,-20.3%,-0.57
Cc1ccc(-c2csc(N(CCCN3CCOCC3)C(=O)c3ccco3)n2)cc1,i,3.7%,-0.78
Cc1cc(C)n(C(=O)CCCC(=O)n2nc(C)cc2C)n1,i,-1.1%,-0.83
COC(=O)c1ccc(NC(=O)CN2CCOCC2)cc1,i,-10.2%,0.06
O=C(O)CCCC(=O)Nc1ccccc1C(=O)N1CCCC1,i,3.1%,-0.08
Cn1nnnc1SCCNCc1ccncc1,i,-3.5%,-1.05
Cc1cc(Cl)c(S(=O)(=O)N2CC(C)OC(C)C2)cc1OCC(N)=O (stereo unspecified),i,1.2%,0.72
COCCN1C(=O)c2ccccc2C(C(=O)NCCCN2CCCC2=O)C1c1c[nH]c2ccccc12 (stereo unspecified),i,7.0%,1.5

# Record cards, from the list above. Order of screens: MT1-MMP promoter	Hsc70 ATP site	WNV NS2B-NS3 inh
# `COC(=O)c1ccc(NC(=O)CN2CCOCC2)cc1` in the list: i	-10.2%	0.06
# `COCCN1C(=O)c2ccccc2C(C(=O)NCCCN2CCCC2=O)C1c1c[nH]c2ccccc12` (stereo unspecified) in the list: i	7.0%	1.5
# `Cc1ccc(-c2csc(N(CCCN3CCOCC3)C(=O)c3ccco3)n2)cc1` in the list: i	3.7%	-0.78
# `COC(=O)CSc1nc(NCC(C)C)nc(N2CCOCC2)n1` in the list: i	-20.3%	-0.57
# `O=C(O)CCCC(=O)Nc1ccccc1C(=O)N1CCCC1` in the list: i	3.1%	-0.08

# Remaining list, next part.
SMILES,MT1-MMP promoter,Hsc70 ATP site,WNV NS2B-NS3 inh
CCCn1c(Nc2nc3ccccc3n2C)nc2ccccc21,i,-1.7%,2.96
CCOc1ccc(NC(=O)c2ccccc2OC)cc1,i,5.0%,-1.1
Cc1ccc(NC(=O)C2CCN(S(=O)(=O)c3c(C)n[nH]c3C)CC2)nc1,i,-1.8%,-0.23
CC1CC(C(F)(F)F)n2ncnc2N1 (stereo unspecified),i,-4.1%,0.39
Cc1cc(N2CCOCC2)n2nc(C)c(-c3ccccc3)c2n1,i,5.0%,1.15
Cc1ccc(NCc2nnc(SCC(=O)N3CCCc4ccccc43)o2)c(C)c1,i,1.0%,0.76
O=c1[nH]c2cc3c(cc2cc1CN(CC1CCCO1)S(=O)(=O)c1ccccc1)OCCO3 (stereo unspecified),i,1.4%,0.6
CCOC(=O)C1C(=O)NC(N2CCCCC2)=NC1c1ccccc1 (stereo unspecified),i,3.0%,-1.05
COC(=O)C1=C(C)N(c2ccc(F)c(Cl)c2)C(=O)C1,i,-1.3%,-0.84
COc1ccc(OC)c(C(c2nnnn2C2CCCC2)N2CCc3ccccc3C2)c1 (stereo unspecified),i,-6.5%,0.03
COC(=O)c1ccc(CSc2nnnn2-c2ccc(C)cc2C)o1,i,-5.0%,0.19
Cc1nc(NC(=O)C2CC2)sc1C(=O)N1CCCCC1,i,1.7%,-0.96
Cc1oncc1C(=S)Nc1ccccc1,i,-4.1%,-0.03
CCn1cc(C2=NOC(C(=O)Nc3cc(OC)c(Cl)cc3OC)C2)c(C)n1 (stereo unspecified),i,-2.2%,-0.42
CCCn1c(SCC(=O)N2c3ccccc3Sc3ccccc32)nc2c1c(=O)n(C)c(=O)n2C,i,0.2%,0.48
CCN(CC)C(=O)c1scc2c1OCCO2,i,0.0%,-0.86
COCCNC(=O)CC(NS(=O)(=O)c1ccc(NC(C)=O)cc1)C(C)C (stereo unspecified),i,1.0%,0.01
CC(C)(C)N1CC(c2nc3ccccc3n2Cc2ccccc2)CC1=O (stereo unspecified),i,-0.7%,.
Cc1ccc(C)c(C(=O)NCc2ccncc2)c1,i,-0.6%,-0.48
COc1ccc(-c2nnc(SCC(=O)N3c4ccccc4Sc4ccccc43)o2)cc1,i,3.2%,.
C=CCn1c(=O)c2ccccc2n2c(SCC(N)=O)nnc12,i,2.6%,.
Cc1c(C(=O)OCc2cc(=O)n3cc(Br)ccc3n2)oc2ccccc12,i,-5.7%,1.54
CN1C(=O)NC2C1N(S(C)(=O)=O)CCN2S(C)(=O)=O (stereo unspecified),i,2.6%,0.14
Cc1cc2nnc(SCC(=O)N3CCN(c4ccccc4)CC3)n2c(N)n1,i,7.4%,.
CCC(C)[C@H](NC(=O)NCCCc1ccccc1)C(=O)OC (stereo partly specified),i,-3.6%,.
Nc1cc(N)nc(SCc2cc(=O)oc3cc4c(cc23)CCC4)n1,i,-1.0%,-1.67
COc1cccc(-c2nn3c(-c4cc(C)[nH]n4)nnc3s2)c1,i,-0.1%,-1.04
COc1cccc(C2/C(=C(/O)c3ccc(F)cc3)C(=O)C(=O)N2CCN(C)C)c1 (stereo unspecified),i,-0.2%,2.16
O=C(NCc1ccc(Cl)cc1)c1ccc(COCC(F)(F)F)o1,i,0.2%,-0.65
COc1cc(CNC(C)(C)CO)ccc1OCC(=O)Nc1ccc(Br)cc1,i,0.3%,.

# Reformatted: results already given
Compound | MT1-MMP promoter | Hsc70 ATP site | WNV NS2B-NS3 inh
COc1cc(CNC(C)(C)CO)ccc1OCC(=O)Nc1ccc(Br)cc1 | i | 0.3% | .
COc1cccc(-c2nn3c(-c4cc(C)[nH]n4)nnc3s2)c1 | i | -0.1% | -1.04
Cc1cc2nnc(SCC(=O)N3CCN(c4ccccc4)CC3)n2c(N)n1 | i | 7.4% | .
O=C(NCc1ccc(Cl)cc1)c1ccc(COCC(F)(F)F)o1 | i | 0.2% | -0.65
COc1cccc(C2/C(=C(/O)c3ccc(F)cc3)C(=O)C(=O)N2CCN(C)C)c1 (stereo unspecified) | i | -0.2% | 2.16
CN1C(=O)NC2C1N(S(C)(=O)=O)CCN2S(C)(=O)=O (stereo unspecified) | i | 2.6% | 0.14
C=CCn1c(=O)c2ccccc2n2c(SCC(N)=O)nnc12 | i | 2.6% | .

# (further entries)
SMILES,MT1-MMP promoter,Hsc70 ATP site,WNV NS2B-NS3 inh
c1nc(N2CCOCC2)c2c3c(sc2n1)CCCC3,i,-0.5%,-0.24
CCOC(=O)C1Cc2ccccc2C(=O)O1 (stereo unspecified),i,4.4%,-0.67
Cc1ccc(-c2noc(C3CCCN(C(=O)C4CCCCC4)C3)n2)o1 (stereo unspecified),i,-6.4%,-0.9
N#CCCn1nc(-c2ccccc2)cc1Nc1ccccc1NC(=O)c1cccs1,i,-2.3%,0.06
COC(=O)CN(c1ccc(F)cc1)S(=O)(=O)c1ccccc1,i,0.0%,-0.28
CCN(CC)CCN=CC1=C(O)CNC1=O,i,0.5%,-0.14
CC1=Nc2ccc(C)cc2N(Cc2ccccc2)C(=O)C1,i,-2.9%,-1.01
CC1(C)CC(=O)c2cc(C(=O)NCc3ccco3)c(=O)n(-c3ccc(Cl)cc3)c2C1,i,-5.4%,-0.53
CC(C)Cn1c(-c2cccs2)nc2ccccc21,i,3.2%,.
CCOC(=O)Cn1c(=O)c2c(nc(Br)n2Cc2ccccc2)n(C)c1=O,i,2.0%,-0.39
CC(C)(NC(=O)N1CCOCC1)c1cccc(C(C)(C)NC(=O)N2CCOCC2)c1,i,1.5%,.
COc1ccc(COC(=O)c2n[nH]c3ccccc23)cc1F,i,1.1%,-0.38
Cc1nc2ccccc2c(=O)n1CCCn1ccnc1,i,-2.0%,-0.2
CNC(=O)COC(=O)c1cc2c(C)nn(-c3ccc(F)cc3)c2s1,i,9.4%,.
COc1ccccc1-n1c(SCC(=O)NC2CCCC2)nc2cccnc21,i,-5.6%,-1.76
Clc1ccc(COn2nnc3ccccc32)c(Cl)c1,i,0.9%,-0.35
CC1CC(C)(C)N2C(=O)C3(Nc4ccccc4S3)c3cccc1c32 (stereo unspecified),i,1.6%,.
C/C(O)=C\c1nc(=O)c2c(C)cc(C)nc2n1-c1ccccc1,i,0.8%,1.07
CCN(C(=O)Cc1c(C(=O)O)[nH]c2ccccc12)c1cc(OC)ccc1OC,i,-5.6%,0.21
CN(CCO)CC(O)Cn1cnc2c1c(=O)n(C)c(=O)n2C (stereo unspecified) (tested in a mixture with another compound),i,-2.8%,-0.07
O=C(Nc1cccc(O)c1)c1cnn2cccnc12,i,2.6%,.
CCn1c(=O)cc(OCC(=O)N2CCCC2)c2ccccc21,i,3.9%,0.35
N#Cc1ccc(CSc2nnc(-c3ccccn3)n2-c2ccccc2)cc1,i,2.6%,-0.23
COc1cccc(C(=O)NCc2nnc(SCC(=O)Nc3nccs3)n2-c2cccc(C)c2)c1,i,5.1%,0.24
CCOC(=O)c1ccc(N2C(=O)c3n[nH]c(C)c3C2c2cccnc2)cc1 (stereo unspecified),i,-1.2%,2.2
O=C(CN1CCN(c2ccccn2)CC1)Nc1ccc(Cl)c(C(F)(F)F)c1,i,8.8%,0.41
COc1ccc(N(Cc2cc3cc(OC)ccc3[nH]c2=O)C(=O)c2cccnc2)cc1,i,-5.3%,-0.67
CC(C)CC(=O)Nc1ccccc1-c1nnn(CC(=O)N2CCc3ccccc3C2)n1,i,10.6%,.
COc1ccc2nc(SCC(=O)N3CCCCCC3)c(C#N)cc2c1,i,-2.6%,0.81
O=C(Nc1ccc(N2CCCC2)cc1)c1cccc(F)c1,+,-6.1%,0.09
Cc1ccc2cc(CCNC(=O)CC(C)C)c(=O)[nH]c2c1,i,4.5%,-0.64
O=C(CSc1nnc(NCc2ccccc2)s1)c1ccco1,i,5.7%,0.35
O=c1[nH]c2ccccc2n1Cc1ccc(F)cc1,i,5.2%,0.01
C=CCn1c(COc2ccccc2)nnc1SCC(=O)Nc1ccc(S(N)(=O)=O)cc1,i,4.1%,-0.83
O=C(OCc1nnc(-c2ccccc2)o1)C1CCN(S(=O)(=O)c2cccs2)CC1,i,-3.4%,0.88
O=C(NC1CCCCCC1)c1cccc(N2CCCC2=O)c1,i,-2.6%,0.7
O=C(c1ccco1)N1CCN=C1SCc1c(F)cccc1Cl,i,-3.2%,1.02
CCCC1(C(=O)OCC)NC(c2ccc(N(C)C)cc2)C2C(=O)N(c3ccc(OCC)cc3)C(=O)C21 (stereo unspecified),i,2.8%,-0.67
CS(=O)(=O)N(Cc1ccccc1)c1ccc(C(=O)NCC2CCCO2)cc1 (stereo unspecified),i,-7.2%,.
O=c1cccc(-c2ccccc2)[nH]1,i,0.5%,-0.69
Oc1ccc(C=Nc2cccc3ncccc23)c(O)c1,i,-4.8%,-0.15
CCOC(=O)c1cc2n(c1C)-c1ccccc1C2=O,i,-2.0%,-0.39
CCCn1c2c(c(O)c(C(=O)Nc3ncccc3C)c1=O)CCCC2,i,23.2%,-0.98
CCS(=O)(=O)N1CCC(C(=O)N2CCOCC2)CC1,i,7.2%,-0.74
COc1ccc(-c2nnc(SCC(=O)N3CCCC3)o2)cc1OC,i,1.3%,0.89
Cc1cc(=O)[nH]c(SCn2nnc3ccccc3c2=O)n1,i,6.3%,-1.43
Cc1ccc2c(c1)N(CC(=O)N(Cc1ccccn1)Cc1ccco1)C(=O)C(C(C)C)O2 (stereo unspecified),i,0.6%,.
COC(=O)C1C(c2ccccc2)C(C(=O)OCc2ccco2)C1c1ccccc1 (stereo unspecified),i,-0.8%,.
Cc1cc2ccccc2c(=O)n1CC(=O)NCC(=O)N1CCCC1,i,-0.6%,-0.73
NC(=O)CN(c1ccc(Cl)cc1)S(=O)(=O)c1ccccc1,i,2.4%,-0.59
# (listing goes on)
SMILES,MT1-MMP promoter,Hsc70 ATP site,WNV NS2B-NS3 inh
COc1ccc(NC(C#N)c2ccc(OC)cc2)cc1 (stereo unspecified),i,-2.4%,.
Clc1ccccc1-c1nnc2sc(-c3cccs3)nn12,i,-0.4%,-1.33
O=C1CCCc2c1[nH]c1ccccc21,i,-10.0%,-0.28
CCOc1ccc(NC(=O)CSc2nnc(Cc3cccn3C)n2-c2ccc(OC)cc2)cc1,i,-8.5%,-1.12
O=C(NCc1cccnc1)C1c2ccccc2C(=O)N1C1CCCC1 (stereo unspecified),i,2.0%,-0.84
CCOC(=O)C1=C(C)N=C2SCCC(=O)N2C1c1cccs1 (stereo unspecified),i,5.6%,0.17
COc1ccc(OC)c(C(O)c2coc3ccc(O)c(CN(C)C)c23)c1 (stereo unspecified),i,-0.4%,.
Cc1ncsc1C(=O)NCc1ccc(N2CCCC2=O)cc1,i,5.4%,0.24
Cc1nc2scc(-c3ccccc3)c2c(=O)n1/N=C/c1ccco1,i,4.9%,1.41
Cc1ccc(C(c2nnnn2C2CCCCC2)N2CCN3CCCC3C2)cc1 (stereo unspecified),i,-3.2%,.
CN(C)c1ccc(/C=C2\C(=O)N(c3ccc([N+](=O)[O-])cc3)N=C2N2CCOCC2)cc1,i,1.3%,.
COC(=O)c1[nH]c2ccccc2c1NC(=O)CN1CCN(Cc2ccc3c(c2)OCO3)CC1,i,-0.8%,1.4
Cc1ccc(S(=O)(=O)N(C)Cc2ccc(-c3nnc4n3CCC4)cc2)cc1,i,-0.7%,-1
CC12CCC(C(=O)NC(c3ccccc3)c3ccccc3)(OC1=O)C2(C)C (stereo unspecified),i,-3.2%,.
CCOc1ccccc1CNc1nc2nc3c(c(=O)n2[nH]1)CCC3,i,0.1%,-0.82
Cc1ccccc1Cn1nnc2c1C(=O)c1ccccc1C2=O,i,-13.9%,.
O=C(NCc1ccccc1)C(C(=O)c1ccc(F)cc1)n1ccccc1=O (stereo unspecified),i,-5.1%,.
CCOC(=O)Cn1c(=O)sc2ccccc21,i,8.8%,2.6
